SARS PLpro yeast: qHTS of Yeast-based Assay for SARS-CoV PLP. S. cerevisiae expressing SARS-CoV PLpro, growth rescue; control for the full effect not named in the record. Potency, µM (top dose mostly 32.9 µM), inactives show top-dose activity, positive = growth rescue. 330,000 compounds, 0.19% hits. AID 485353, 2010; also: 0% is about no effect; nearly all actives have a fitted effect of over 55% in size; growth read by luminescence after 48 h
RE007 growth inh: qHTS Assay for Inhibitors of the HIV-1 protein Vpr; S. pombe RE007 Vpr strain, BacTiter-Glo ATP luminescence, 24 h; control for the full effect not named in the record; Potency, µM (titrated, usually from 92.2 µM), inactives show at the highest dose activity change, negative = less growth; 360,000 compounds, 0.21% hits; AID 651644, 2012; active = well fitted falling curve with a large enough effect; inconclusive = small, poorly fitted or top-dose-only effect; inactive = no such curve, though single readings can be large or run the other way;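 also: % is scaled to controls: 0 for no effect and ±100 for the full control effect; nearly all actives have a fitted effect of over 50% in size; the assay follows cell death caused by Vpr and the record does not say whether a fall means rescue or toxicity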
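Fission yeast strain RE007, carrying one chromosomally integrated HIV-1 vpr copy, was seeded at OD 0.01 in PMG+AL medium with 23 nL pinned compound. After 24 h at 30 °C and 99% humidity, viability was read by BacTiter-Glo luminescence.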
NS1 inh: qHTS Assay for Inhibitors of Influenza NS1 Protein Function | S. cerevisiae slowed by influenza A NS1, growth recovery by OD600 | AID 2326, 2010 | 270,000 compounds, 0.4% hits | Potency, µM (highest dose often 46.1 µM), without a hit: at the highest dose activity, positive = more growth; also: actives are rising curves; nearly all actives have a fitted effect of over 50% in size
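Read-out: OD600 growth recovery of NS1-expressing budding yeast. Cells grown overnight at 30C in -URA glucose medium, washed, resuspended and diluted 1:100 in 2% galactose assay medium, pH 6.0. Same strain lacking NS1 served as positive control.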
MARV entry inh: qHTS for inhibitors of binding or entry into cells for Marburg Virus. Marburg virus pseudotyped entry inhibition, cell reporter; control for the full effect not named in the record; about a third of the inactives were read at about 46 µM. Potency, µM (highest dose often 37.8 µM), for the others: at the top dose activity change, negative = inhibition, usual class: inhibitors. 300,000 compounds, 1.8% hits. AID 540276, 2011; active = well fitted inhibition curve with a large enough effect; inconclusive = small, poorly fitted or top-dose-only effect, or effect the other way; inactive = flat fitted curve, though single readings scatter; tested in HEK293 cells; about a fifth of its hits are not listed in these tables; also: % is scaled to controls: 0 for no effect and ±100 for the full control effect; luciferase read-out
Cruzain inh Det: qHTS Assay for Promiscuous and Specific Inhibitors of Cruzain (with detergent). purified cruzain, Z-FR-AMC fluorescence, 0.01% Triton. AID 1478, 2009. Potency, µM, without a hit: max response, negative = inhibition, hits mostly inhibitors. 200,000 compounds, 0.43% hits; active = well fitted curve in the direction sought with a large enough effect; inconclusive = small, poorly fitted or top-dose-only effect, or another doubt; inactive = no such curve, though single readings can be large; an effect the other way counts as inactive or inconclusive;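 also: plate controls were neutral wells for no effect and buffer without enzyme for full effect; nearly all actives have a fitted effect of over 40% in size; top concentration of the series not given in the record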
Target sequence (P25779 123-467 limits assumed): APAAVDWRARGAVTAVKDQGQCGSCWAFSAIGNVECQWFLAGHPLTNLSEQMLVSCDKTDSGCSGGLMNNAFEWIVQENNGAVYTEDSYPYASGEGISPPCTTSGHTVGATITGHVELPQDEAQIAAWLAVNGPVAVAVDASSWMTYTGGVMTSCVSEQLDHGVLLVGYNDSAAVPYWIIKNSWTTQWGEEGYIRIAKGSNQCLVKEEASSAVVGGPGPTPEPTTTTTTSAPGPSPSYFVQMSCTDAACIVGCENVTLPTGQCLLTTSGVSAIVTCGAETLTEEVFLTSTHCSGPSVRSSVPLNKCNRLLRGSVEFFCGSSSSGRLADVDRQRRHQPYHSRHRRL
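Cruzain (1.5 nM) preincubated 15 min at RT with compound in 100 mM sodium acetate pH 5.5, 5 mM DTT, 0.01% Triton X-100. Reaction started with 2 uM Z-FR-AMC; AMC fluorescence (ex 360/em 450 nm) change over 60 s gave rate.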
StopGo reporter: High Throughput Screening for Foot and Mouth Disease Virus Antivirals; human cells with a luciferase reporter of 2A StopGo recoding; control for the full effect not named in the record; Potency, µM (doses to about 57.9 µM), without a hit: at the top dose signal change, negative = less light; 410,000 compounds, 1.2% hits; active = well fitted falling curve with a large enough effect; inconclusive = small, poorly fitted or top-dose-only effect; inactive = no such curve, though single readings can be large or run the other way; tested in HEK293T cells; also: % is scaled to controls: 0 for no effect and ±100 for the full control effect; nearly all actives have a fitted effect of over 45% in size; luciferase light after 4 h
LASV entry inh: qHTS for Inhibitors of binding or entry into cells for Lassa Virus; Potency, µM (top dose mostly 37.9 µM), for inactives: at the top dose activity change, negative = inhibition, most hits filed as inhibitors; Lassa virus pseudotype entry inhibition, cell reporter; control for the full effect not named in the record; 300,000 compounds, 1.2% hits; active means well fitted inhibition curve with a large enough effect; inconclusive means small, poorly fitted or top-dose-only effect, or effect the other way; inactive means flat fitted curve, though single readings scatter; tested in HEK293 cells; also: % is scaled to controls: 0 for no effect and ±100 for the full control effect; nearly all actives have a fitted effect of over 50% in size; luciferase read-out
Cruzain inh noDet: qHTS Assay for Promiscuous and Specific Inhibitors of Cruzain (without detergent). purified cruzain, Z-FR-AMC fluorescence, no detergent. Potency, µM, for the others: max response, negative = inhibition, most hits filed as inhibitors. 200,000 compounds, 2.3% hits; active = well fitted curve in the direction sought with a large enough effect; inconclusive = small, poorly fitted or top-dose-only effect, or another doubt; inactive = no such curve, though single readings can be large; an effect the other way counts as inactive or inconclusive;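 also: plate controls were enzyme without inhibitor for no effect and buffer without enzyme for full effect; nearly all actives have a fitted effect of over 40% in size; top concentration of the series not given in the record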
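Detergent-free condition (0.00005% Triton X-100) in acetate buffer pH 5.5 with DTT. 1.5 nM enzyme and compound were pre-mixed 15 min, then 2 uM Z-FR-AMC substrate added; reaction progress from fluorescence change between first and third reads (60 s).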
Active calls of the source: *; ? = inconclusive; . = not tested or not shown; & = joins results of further samples; [ ] = remark or other dose. Unless noted, calls follow the shape of the dose curve; as a rule, active means well fitted rising curve with a large enough effect; inconclusive means small, poorly fitted or top-dose-only effect; inactive means no such curve, though single readings can be large or run the other way. Potency is read from the fitted curve at half-maximal effect.

SMILES	SARS PLpro yeast	RE007 growth inh	NS1 inh	MARV entry inh	Cruzain inh Det	StopGo reporter	LASV entry inh	Cruzain inh noDet
Cc1ccc(NC2SC(=O)N(Cc3cccc(C(=O)O)c3)C2=O)c(C)c1 (configuration not stated)	-1%	2%	-2%	.	.	-22%	?	.
O=C(Nc1c2c(nn1-c1ccc([N+](=O)[O-])cc1)CS(=O)(=O)C2)c1ccccc1F	?	9%	-9%	.	.	-4%	.	.
CCOc1cc(/C=N/NC(=O)CCCC(=O)NC2CCCCC2)ccc1O	-14%	3%	12%	-10%	-2.5%	-17%	10%	-3%
Cc1ccc(S(=O)(=O)N2CCN=C2SCc2ccccc2)cc1	-5%	-3%	.	-17%	.	-25%	?	.
CCOC(=O)c1c(C)oc2c1c(C=NC1CCS(=O)(=O)C1)c(O)c1ccccc12 (configuration not stated)	-2%	-5%	-1%	?	-1.9%	0%	-12%	3%
Cc1ccc(C(=O)Nc2ccc(N3CCOCC3)c3nonc23)cc1[N+](=O)[O-]	-1%	0%	-4%	?	.	-13%	?	.
CC(C)n1c(SCC(=O)Nc2ccc(F)cc2)nc2c(oc3ccccc32)c1=O	.	.	.	6%[46.1 µM]	1.6%	0%	.	-1%
O=C(C1CCN(c2ccc(N3CCOCC3)nn2)CC1)N1CCN(c2ccc(F)cc2)CC1	-4%	-1%	-5%	-5%	-4.5%	?	0%	-1%
CCCCn1c(N)c(N(CCOC)C(=O)COC(=O)COc2cccc(C(C)=O)c2)c(=O)[nH]c1=O	1%	5%	.	9%	.	-11%	9%[46.1 µM]	.
O=C(Nc1cccc(-c2nn[nH]n2)c1)c1ccc(Cl)s1	7%	6%	9%	.	.	12%	.	.
COCCNC(=O)CN(C(=O)Cn1nnc2ccccc21)c1ccc(C)c(F)c1	20%	1%	-2%	?	-2.6%	-8%	-3%	-6%
CCC1(C(=O)OC)NC(c2cccc(F)c2)C2C(=O)N(C)C(=O)C21 (configuration not stated)	.	2%	-2%	20%	.	?	-2%	.
CCCn1nnc(NC(=O)c2sc3ccccc3c2Cl)n1	-18%	?	-82%	16%	-3.9%	.	17%	-1%
CCOC(=O)c1sc(NC(=O)c2nc3nc(C)cc(C(F)F)n3n2)c(C(=O)OC(C)C)c1C	.	.	.	?	-1.2%	-11%	8%[46.1 µM]	10%
O=C(NCc1ccco1)c1ccc2c(=O)n(-c3ccccc3)c(=S)[nH]c2c1	-4%	31%	12%	-3%	2.5%	?	-2%	?
Cc1cc(C(=O)NCc2cc(F)cc3c2OCOC3)nn1C	0%	3%	0%	15%[46.1 µM]	.	33%[activator]	0%	.
CC(C)c1ccccc1OCCCCCNCCO	2%	3%	?	?	-0.6%	.	?	-2%
Cc1ccc(CC(=O)NCC(C)C)cc1	-5%	7%	0%	13%	10%	19%	4%	-7%
O=C(NCCCn1ccnc1)/C(=C/c1cccnc1)NC(=O)c1ccco1	-1%	5%	2%	.	.	-3%	.	.
CCc1ccccc1OCc1nnc(N)s1	-2%	3%	-10%	27%[46.1 µM]	-2.3%	-3%	3%	2%
COc1ccccc1-n1c(SCC(=O)N(C)C2CCS(=O)(=O)C2)nc2ccccc2c1=O (configuration not stated)	3%	11%	-7%	-4%&-4%	-2.4%	-21%	11%	6%
CN(C)S(=O)(=O)Nc1cccc(NC(=O)CC23CC4CC(CC(C4)C2)C3)c1	-3%	4%	-2%	-27%[46.1 µM]	.	40%[activator]	?	.
COc1ccccc1/C=C\C(=O)NCC(=O)N/N=C(/C)c1cccc([N+](=O)[O-])c1	-1%	-3%	-9%	?	.	-8%	-28%	.
Cc1cc(C(=O)OCC(=O)Nc2c(F)cccc2F)c(C)n1-c1ccccc1	0%	-2%	-14%	?	.	-25%	?	.
Cc1ccc(S(=O)(=O)N2C(=O)CCC2C(=O)N2CCCCC2)cc1 (configuration not stated)	3%	5%	6%	.	.	1%	.	.

Record cards, as listed above. Values in the order: SARS PLpro yeast	RE007 growth inh	NS1 inh	MARV entry inh	Cruzain inh Det	StopGo reporter	LASV entry inh	Cruzain inh noDet
Cc1ccc(S(=O)(=O)N2CCN=C2SCc2ccccc2)cc1 in the list: -5%	-3%	.	-17%	.	-25%	?	.
CN(C)S(=O)(=O)Nc1cccc(NC(=O)CC23CC4CC(CC(C4)C2)C3)c1 in the list: -3%	4%	-2%	-27%[46.1 µM]	.	40%[activator]	?	.
Cc1ccc(S(=O)(=O)N2C(=O)CCC2C(=O)N2CCCCC2)cc1 (configuration not stated) in the list: 3%	5%	6%	.	.	1%	.	.
Cc1cc(C(=O)NCc2cc(F)cc3c2OCOC3)nn1C in the list: 0%	3%	0%	15%[46.1 µM]	.	33%[activator]	0%	.
O=C(C1CCN(c2ccc(N3CCOCC3)nn2)CC1)N1CCN(c2ccc(F)cc2)CC1 in the list: -4%	-1%	-5%	-5%	-4.5%	?	0%	-1%

The listing picks up, repeating the 4 entries before the break.
SMILES	SARS PLpro yeast	RE007 growth inh	NS1 inh	MARV entry inh	Cruzain inh Det	StopGo reporter	LASV entry inh	Cruzain inh noDet
CN(C)S(=O)(=O)Nc1cccc(NC(=O)CC23CC4CC(CC(C4)C2)C3)c1	-3%	4%	-2%	-27%[46.1 µM]	.	40%[activator]	?	.
COc1ccccc1/C=C\C(=O)NCC(=O)N/N=C(/C)c1cccc([N+](=O)[O-])c1	-1%	-3%	-9%	?	.	-8%	-28%	.
Cc1cc(C(=O)OCC(=O)Nc2c(F)cccc2F)c(C)n1-c1ccccc1	0%	-2%	-14%	?	.	-25%	?	.
Cc1ccc(S(=O)(=O)N2C(=O)CCC2C(=O)N2CCCCC2)cc1 (configuration not stated)	3%	5%	6%	.	.	1%	.	.
CCCC(=O)Nc1ccc(C#Cc2ccccc2)cc1	-5%	-6%	-13%	-88%	2.8%	42%[activator]	?	-5%
Cc1cc2nc(-c3ccc(NC(=O)c4ccccc4F)cc3)oc2cc1C	.	.	.	.	1.4%	11%	27%[46.1 µM]	9%
Cc1cccc(C(=O)NCc2nnc(SCC(=O)NC3CCCC3)n2C)c1	0%	-15%	6%	15%[46.1 µM]	.	-4%	18%[46.1 µM]	.
Cc1cc(N)n(-c2ccccn2)n1	0%	0%	0%	26%	.	35%[activator]	10%	.
CCNC(=S)Nc1sc2c(c1C#N)CCC(C)C2 (configuration not stated)	0%	?	-65%	?	.	21%	5%	.
O=C(/C=C/c1ccc(O)cc1)c1c(O)cc(O)cc1O	1%	1%	3%	.	-3.8%	13%	.	3%
COc1ccc(NS(=O)(=O)c2ccc(N3CCOCC3)c(NC(=O)c3ccccc3Cl)c2)cc1	12%	21%	9%	?	-3.8%	67%[activator]	1.6µM*	7%
C/C(=N\Nc1cccc2cccnc12)c1ccccc1O	-3%	-8%	.	?	.	-15%	?	.

2 entries picked at random from those above:
SMILES	SARS PLpro yeast	RE007 growth inh	NS1 inh	MARV entry inh	Cruzain inh Det	StopGo reporter	LASV entry inh	Cruzain inh noDet
Cc1cccc(C(=O)NCc2nnc(SCC(=O)NC3CCCC3)n2C)c1	0%	-15%	6%	15%[46.1 µM]	.	-4%	18%[46.1 µM]	.
C/C(=N\Nc1cccc2cccnc12)c1ccccc1O	-3%	-8%	.	?	.	-15%	?	.
